Bioassay records: PubChem, National Center for Advancing Translational Sciences (NCATS)
gsp antag – antagonists of gsp mutant (McCune-Albright syndrome) | gsp-mutant cells, cAMP HTRF, 30 min; control for the full effect not named in the record | Potency, µM (top dose mostly 76.9 µM), without a hit: at the highest dose activity change, negative = inhibition, actives largely listed as inhibitors | AID 624288 | actives 0.4% (n = 340,000); active = falling curve of any shape with a large fitted effect; inconclusive = falling curve, mostly with a smaller effect; inactive = flat or rising curve; cell line not stated here;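 also: intracellular cAMP measured with PDE inhibitor Ro 20-1724 present during compound exposure; potency is read from the fitted curve at half-maximal effect; % is scaled to controls: 0 for no effect and ±100 for the full control effect; nearly all actives have a fitted effect of over 65% in size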
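Cells in G418 medium, seeded 16-24 h, 37C; buffer exchange to DPBS + 1 mM CaCl2, 0.5 mM MgCl2, 0.05% BSA; cpds in DMSO + […] (300 uM stock), 30 min 37C; HTRF cAMP detection.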
D2 ag – agonists of human D2 dopamine receptor (beta-arrestin). DiscoveRx PathHunter D2 beta-arrestin, luminescence, 90 min; 100% = 57 uM dopamine signal. actives 0.084% (n = 360,000). AID 624465. activation, % (test concentration not listed). P14416; in the data active = activation above about 40%; inconclusive = about 15% to 40%; inactive = below about 15%; also: compound concentration not given in the record; the text of the record calls up to 30% inactive
Target sequence (P14416 whole entry, looked up): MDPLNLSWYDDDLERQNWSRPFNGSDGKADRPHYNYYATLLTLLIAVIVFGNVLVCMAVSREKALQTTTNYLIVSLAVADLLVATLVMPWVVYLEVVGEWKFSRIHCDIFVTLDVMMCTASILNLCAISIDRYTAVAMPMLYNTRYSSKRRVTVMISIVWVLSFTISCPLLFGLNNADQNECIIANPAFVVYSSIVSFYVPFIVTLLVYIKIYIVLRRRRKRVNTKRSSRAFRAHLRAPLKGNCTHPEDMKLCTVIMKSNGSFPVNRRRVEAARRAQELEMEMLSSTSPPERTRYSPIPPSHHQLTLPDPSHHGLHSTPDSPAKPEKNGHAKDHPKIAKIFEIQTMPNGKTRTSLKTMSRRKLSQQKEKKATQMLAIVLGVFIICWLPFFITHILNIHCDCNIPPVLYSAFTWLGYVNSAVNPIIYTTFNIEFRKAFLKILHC
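DiscoveRx PathHunter D2 beta-arrestin cells (2,100/well) attached overnight, then compound-stimulated 90 min at 37 C in HBSS/10 mM HEPES/0.1% Tween-20 buffer; beta-galactosidase complementation read by luminescence after 1 h at ambient temperature. Dopamine 57 uM final (EC100) as control.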
Sfp PPTase inh – blocks B. subtilis Sfp PPTase activity; Q9F4F7; actives 3.5% (n = 310,000); Biochemical Sfp PPTase activity, qHTS; Potency, µM, for inactives: max response, negative = inhibition, most hits filed as inhibitors; active = well fitted inhibition curve with a large enough effect; inconclusive = small, poorly fitted or top-dose-only effect, or another doubt; inactive = no such curve, though single readings can be large or run the other way;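 also: the enzyme is Sfp with the accession as filed and its product quenches rhodamine fluorescence; potency is read from the fitted curve at half-maximal effect; 0% = enzyme reaction without inhibitor and -100% = no enzyme wells; top concentration of the series not given in the record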
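Reaction rates are the 30-min fluorescence difference (ex 525, em 598 nm) in wells containing 15 nM Sfp, 5 uM rhodamine-CoA and 12.5 uM BHQ-2-YbbR at pH 7.6 with 10 mM MgCl2.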
PINK1 expr mod – PINK1 expression modulation; PINK1 immunofluorescence, high-content cytometry, 24 h; Potency, µM (titrated, usually from 76.6 µM), inactives show top-dose activation (PINK1 increase), usual class: activators; actives 0.2% (n = 410,000); active = well fitted activation curve with a large enough effect; inconclusive = small, poorly fitted or top-dose-only effect; inactive = flat fitted curve, though single readings scatter; cell line not stated here;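 also: potency is read from the fitted curve at half-maximal effect; % of control where 0% means no effect; nearly all actives have a fitted effect of over 65% in size; a mitochondrial uncoupler was the plate control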
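A stable cell line was treated with compounds at 5 concentrations for 24 hours, with CCCP as control. PINK1 levels and mitochondrial localization were measured by immunofluorescence with mitochondrial, cell and nuclear markers after fixation, read by laser-scanning cytometry.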
ClpP mod – qHTS Assay for Activators of ClpP | ATP-dependent Clp protease proteolytic subunit (Bacillus subtilis (strain 168)), P80244 | purified B. subtilis ClpP, FRET peptide cleavage, 20 min | Potency, µM (highest dose often 57.5 µM), without a hit: at the highest dose activity change, negative = active | actives 1.9% (n = 340,000); active = well fitted falling curve with a large enough effect; inconclusive = small, poorly fitted or top-dose-only effect; inactive = no such curve, though single readings can be large or run the other way; also: potency is read from the fitted curve at half-maximal effect; the source files actives as falling curves though it sought activators and does not explain the sign; nearly all actives have a fitted effect of over 65% in size; many hits overshoot -100%
Target sequence (P80244 whole entry, looked up): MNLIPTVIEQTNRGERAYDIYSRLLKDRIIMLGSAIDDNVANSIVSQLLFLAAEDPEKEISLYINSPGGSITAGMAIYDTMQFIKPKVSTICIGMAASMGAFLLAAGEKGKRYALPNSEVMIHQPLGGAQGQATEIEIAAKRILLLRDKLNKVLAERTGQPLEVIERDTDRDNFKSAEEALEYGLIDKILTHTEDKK
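ClpP 10 microg/mL final, pH 8 Tris/KCl buffer with BSA, glycerol, Tween-20; compound pinned in; FRET-FV substrate; RT 20 min; Ex320/Em430; ΔFRET vs ADEP 5.8 microM, DMSO, no enzyme.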
Menin MLL FP FL – inhibitors of human menin-MLL interaction, wild-type MLL peptide | Fluorescence polarization, fluorescein-MLL peptide displacement from menin | FP activity change, % at 61.4 µM | 290,000 tested, under 10 active | AID 1766; inconclusive = falling polarisation curve, or a change in total fluorescence; inactive = total fluorescence flat and polarisation flat or rising; no compound was filed as active; the % refers to the polarisation; negative = inhibition;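 also: % of control where 0% means no effect; inhibitors lower the polarisation; unlabelled MLL peptide was the positive control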
gsp agonist – agonists of gsp mutant (McCune-Albright syndrome); gsp mutant cells, cAMP HTRF, 30 min; control for the full effect not named in the record; Potency, µM (series often up to 76.9 µM), for the others: top-dose activation (cAMP increase), usual class: activators; actives 0.13% (n = 340,000); AID 624287; active = well fitted activation curve with a large enough effect; inconclusive = small, poorly fitted or top-dose-only effect, or another doubt; inactive = no such curve, though single readings can be large or run the other way; cell line not stated here;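 also: phosphodiesterase inhibitor Ro 20-1724 added with compounds to block cAMP breakdown; potency is read from the fitted curve at half-maximal effect; nearly all actives have a fitted effect of over 60% in size; about a fifth of the inactives were tested at one dose only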
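Cells stably selected in G418 were plated at 2000/well, grown 16-24 hr, then given compounds in DMSO with the PDE inhibitor […] (300 uM solution added) for 30 min at 37C; cAMP was read by HTRF.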
* marks the source's active call; other numbers are inactive results; u = inconclusive; x = not tested or not shown; & = joins results of further samples; [ ] = remark or other dose.

SMILES	gsp antag	D2 ag	Sfp PPTase inh	PINK1 expr mod	ClpP mod	Menin MLL FP FL	gsp agonist
CCOn1c(=O)c(-c2cccc3ccccc23)[n+]([O-])c2ccccc21	12%	u	8%	1.7%	x	0.6	-8%[15.4 µM]
Cc1nn(C)c(Oc2ccccc2)c1CCNS(=O)(=O)c1ccc(Cl)cc1	u	0.0	12%	1.8%	-1.0%	4.1	23%
CNc1nc(Sc2cccc(C(F)(F)F)c2)cc(C(F)(F)F)n1	-1%	-0.4	13%	-2.4%	-11%	1.7	-28%
O=C(/C=C/c1c(F)cccc1Cl)NCc1ccc2c(c1)OCO2	3%	1.6	2%	4.2%	x	7.8	-88%[inhibitor]
CCOc1ccccc1N(CC(=O)NCc1ccncc1)S(=O)(=O)c1ccccc1	-1%	-0.9	-27%	-2.1%	x	x	5%[15.4 µM]
COc1cc2c3nnc(-c4ccc(F)cc4)c-3cn(Cc3cccc(C)c3)c2cc1OC	2%	-5.4	8%	u	-15%	10	u
CCCCc1[nH]nc2c1C1(C(=O)N(CC)c3ccccc31)C(C#N)=C(N)O2 (configuration not stated)	-1%	1.3	-1%	0.3%	-2.4%	2.1	3%
O=C(COc1ccc2cc(Br)ccc2c1)N1CCCC1	u	-2.7	-2%	3.4%	0.0%	x	u
N/C(=N\OC(=O)C1CC1)c1ccc([N+](=O)[O-])s1	1%	3.5	26%	-0.9%	1.3%	1.8	3%[15.4 µM]
CC(=O)Nc1ccc(N2CCCCC2)cc1	-1%	0.3	22%	x	-2.2%	-0.9	-10%
Cc1cccc(C)c1OCC(=O)Nc1ccc2c(c1)C(=O)NC2=O	-7%	0.8	-1%	1.7%	-16%	x	-29%
CCOc1ccccc1N(CC(=O)O)S(=O)(=O)c1ccc(C)cc1	-13%	-1.8	18%	4.2%	-1.5%	-1.2	2%
CCn1nc(C(=O)NCC(c2cccs2)N2CCOCC2)c2ccccc2c1=O (configuration not stated)	-1%	-4.5	15%	2.5%	0.0%	-3.6	5%[15.4 µM]
Clc1cccc(CN2CCSCC2)c1Cl	4%	-4.9	-32%	3.9%	-0.2%	2.3	-3%[15.4 µM]
COc1ccc(N(CC(=O)NCc2ccco2)S(=O)(=O)c2ccc(C)cc2)cc1	-8%	-1.0	6%	-0.8%	x	-1.8	-16%[15.4 µM]
COc1ccccc1-c1cc(-c2ccccc2)nc(=O)[nH]1	-41%	-0.6	0%	0.2%	4.0%	1.8	-4%[15.4 µM]
O=C(NCc1ccc(-c2csnn2)cc1)c1cc(Cl)cc(Cl)c1	0%	-0.2	17%	14%	x	0.3	u
Nc1ccc2nc(SCC(=O)N3CCN(c4ccccc4)CC3)sc2c1	-5%	-9.6	6%	0.4%	x	1.4	5%[15.4 µM]
Nc1c(C(=O)CSc2ccccn2)c(=O)[nH]c(=O)n1C1CC1	10%	-2.0	x	-1.2%	-0.2%	x	3%
CC(=O)NS(=O)(=O)c1ccc(N2C(=O)c3ccccc3C2=O)cc1	11%	3.0	9%	0.7%	-1.8%	5.3	-44%[inhibitor]
C/C(=N\NC(=O)c1ccc(CSc2cccc3cccnc23)cc1)C1CCCCC1	-1%	1.1	5%	-1.3%	28µM*	5.9	14%
CC(N)c1csc(Nc2ccc(C(=O)c3ccccc3)cc2)n1 (configuration not stated)	x	4.2	x	3.6%	-3.7%	x	x
O=C(C1CCCN(Cc2cccc(F)c2)C1)N1CCCCC1 (configuration not stated)	4%	-1.3	u	-0.6%	-1.1%	1.5	-10%
CCc1nc2c(OCc3cc(Cl)cc(Cl)c3)cccn2c1N(C=O)Cc1ccc(OC)cc1	x	-6.0	x	u	-5.1%	x	x
CNC(=S)NNC(=O)c1sccc1OCc1ccc(Cl)cc1Cl	-4%	-0.5	2%	4.2%[38.3 µM]	1.4%	2.1	19%
Cc1ccccc1-c1nc(CS(=O)(=O)CC(=O)NCCCN2CCCC2=O)c(C)o1	-5%	1.9	-14%	0.2%	-2.4%	1.9	2%
Cc1ccc(NC(=O)CNC(=O)Cc2cccc3ccccc23)c(O)c1	13%	-3.7	x	2.7%	x	x	-1%[15.4 µM]
Cc1cccc(OC(=O)c2sc3ncn(C)c(=O)c3c2C)c1	-11%	2.8	8%	4.9%	x	-0.5	12%
Cc1c(-c2ccccc2)[n+](=O)c2c(n1[O-])CCCCC2	12%	-2.2	19%	-0.2%	-11%	0.4	-18%
Cc1cc(NC(=O)c2ccc(Cl)cc2Cl)n(-c2ccccc2)n1	0%	-1.3	x	-0.6%	-1.0%	x	x
Cc1cccc(-n2c(=S)[nH]c3c(oc4ccccc43)c2=O)c1	2%	-2.7	-23%	3.1%	-0.6%	2.9	14µM*
Cc1cc(C(=O)N/N=C/c2cccnc2)cs1	5%	-2.2	20%	-0.1%	1.9%	1.3	6%
CN(C)CCCN(C(=O)c1ccc(S(=O)(=O)N2CCc3ccccc3C2)cc1)c1nc2ccc(F)cc2s1	4%	u	45µM*	-1.1%	u	-1.8	-13%[15.4 µM]
COc1ccc(CN(C(=O)/C=C/c2ccccc2Cl)C2CCS(=O)(=O)C2)cc1 (configuration not stated)	u	-6.1	7%	-1.1%	-1.1%	-0.6	0%
O=C(Nc1ccccc1C(=O)N1CCCC1)c1ncoc1-c1cccc(Cl)c1	-2%	3.7	3%	3.1%	x	-4.4	-31%
CCCCOc1cccc(C2(C(=O)O)CCCC2)c1	1%	1.6	1%	-2.7%	-1.1%	3.0	-11%
Cc1ccc(-n2cc(CNCCCn3cccn3)c(-c3cccc(C)c3)n2)cc1	1%	0.8	13%	-1.9%	x	1.4	-12%[15.4 µM]
Cc1ccc(CNC(=O)Cn2c(=O)c3sccc3n(Cc3ccc([N+](=O)[O-])cc3)c2=O)cc1	6%	-5.6	-24%	4.1%	1.5%	5.9	-1%[15.4 µM]
O=C1NC(Cc2ccc(O)cc2)c2nc3ccc(F)cc3c(=O)n2-c2cc(Cl)ccc21 (configuration not stated)	-3%	1.7	x	0.2%	0.3%	x	x
O=[N+]([O-])c1cc(C(F)(F)F)ccc1Sc1ccccn1	-6%	-2.4	-7%	4.2%	2.3%	1.1	13%
C/C(=N/NC(=O)CCc1ccccc1)c1ccc2c(c1)OCO2	-8%	-0.5	6%	1.8%	-1.5%	-0.2	20%
CCCN1CCC(=O)N([C@H](COc2ccccc2)CC(C)C)CC1	3%	-1.9	-5%	1.6%	1.6%&-0.1%	-4.7	x
Cn1c(C(=O)NCCN2CCc3ccccc3C2)cc2c(=O)n(C)c3ccccc3c21	-20%	5.0	-3%	8.1%	-21%	2.4	-62%[inhibitor]
COc1ccc(N/N=C(/C(C)=O)N2CCCc3ccccc32)cc1	-26%	-8.0	-23%	5.3%	0.4%	1.3	11%[15.4 µM]
COc1ccc(C(=O)NC(=O)COC(=O)CCS(=O)(=O)c2ccc(C)cc2)cc1	7%	1.0	x	1.5%	1.8%	x	16%[15.4 µM]
CC[C@@H](C)[C@@H]1CN([C@@H](CN2CCC[C@H]2CN2C(N)=NC[C@H]2C(C)C)C(C)C)C(=N)N1CCCC1CCCC1	4%	-1.9	x	-0.7%	-3.5%	x	x
COC(=O)c1ccc(COC(=O)C(NC(=O)Cc2ccccc2)C(C)C)cc1 (configuration not stated)	-5%	0.3	x	-2.2%	x	x	-4%[15.4 µM]
COc1cc(/C=C2\C=CC(=O)O2)cc(OC)c1	-4%	-3.5	-4%	11%	1.0%	u	-26%[15.4 µM]
COc1ccc(-n2c(-c3ccc(OC)c(OC)c3)n[nH]c2=S)cc1	-18%	u	-14%	-0.3%	-21%	5.6	-15%
COC(=O)CSc1nc(N)nc(C)c1Br	-2%	-0.8	-6%	0.2%	-3.5%	4.1	-2%
Cc1cc2n(n1)C(c1cn(-c3ccccc3)nc1C)Nc1ccccc1-2 (configuration not stated)	11%	-2.8	5%	12%	2.5µM*	1.9	5%
O=C(Nc1ccccc1-c1nnn(CC(=O)N2CCc3ccccc3C2)n1)C1CCC1	-14%	-3.2	-8%	-0.7%	0.7%	0.5	14%
NC(=O)CNC(=O)[C@@H]1CC2(CC(c3ccc(Cl)cc3)=NO2)CN1C(=O)c1ccc(Br)cc1 (some centres not stated)	5%	-1.1	-4%	1.1%	-5.2%	4.5	x
O=C(NC1CCCCCCC1)c1cccc(Cl)c1	-12%	0.5	13%	0.0%	-1.2%	-2.7	14%
O=C(CNCCC1=CCCCC1)Nc1ccccc1N1CCCCCC1	-12%	-4.6	u	u	-0.7%	0.9	-4%
Cc1ccc(C2=NN(S(=O)(=O)c3ccccc3)C(c3ccco3)C2)cc1 (configuration not stated)	-18%	-5.5	x	-0.1%	-1.6%	x	-43%[inhibitor]
O=C(Nc1ccc2c(c1)OCCO2)NC12CC3CC(CC(C3)C1)C2	-9%	-0.1	-2%	-1.4%	-2.5%	-0.6	u
COC(=O)C(Cc1ccc(O)cc1)NC(=O)CCNC(=O)c1ccco1 (configuration not stated)	7%	-2.8	13%	0.6%	x	-0.9	20%[15.4 µM]
COc1cccc(COC(=O)CCNC(=O)c2ccc(Br)cc2)c1OC	4%	1.6	x	5.2%	-7.5%	x	-19%
Cc1ccc(CN2[C@@H](c3ccccc3)COCCS2(=O)=O)cc1	-4%	-2.4	14%	4.6%	0.4%&-0.6%	0.7	1%
Continued:
SMILES	gsp antag	D2 ag	Sfp PPTase inh	PINK1 expr mod	ClpP mod	Menin MLL FP FL	gsp agonist
COCCNC(=S)N=Nc1c(O)[nH]c2c(C)cc(C)cc12	13%	-4.2	-27%	1.9%	x	-0.3	-1%[15.4 µM]
Cc1cc(C(=O)CN2C(=O)C(=O)N(Cc3ccccc3)C2=O)c(C)n1-c1ccc2c(c1)OCCO2	-10%	-0.6	5%	3.2%	x	-3.2	-11%[15.4 µM]
Cc1ccccc1-c1nc(CN2CCCC2c2ccc(F)cc2)c(C)o1 (configuration not stated)	-5%	-0.2	2%	u	x	16	-30%
Cc1nnc(N2CCOCC2)c2nn(-c3ccccc3)c(C)c12	-4%	-0.1	8%	11%	-29%	3.6	-1%
